Polio RdRp inh: poliovirus RdRp elongation inhibitors, primary screen, biochemical, fluorescence polarization, total intensity; Genome polyprotein (Poliovirus type 1 (strain Mahoney)), P03300; poliovirus polymerase elongation; stronger effect = lower value; % elongation, % (compound at 16.7 µg/mL); 150,000 tested, 0.66% active; in the data active = % elongation below about 90%; note: some results filed as inactive read as strong as hits
Target sequence (P03300 1749-2209 limits assumed): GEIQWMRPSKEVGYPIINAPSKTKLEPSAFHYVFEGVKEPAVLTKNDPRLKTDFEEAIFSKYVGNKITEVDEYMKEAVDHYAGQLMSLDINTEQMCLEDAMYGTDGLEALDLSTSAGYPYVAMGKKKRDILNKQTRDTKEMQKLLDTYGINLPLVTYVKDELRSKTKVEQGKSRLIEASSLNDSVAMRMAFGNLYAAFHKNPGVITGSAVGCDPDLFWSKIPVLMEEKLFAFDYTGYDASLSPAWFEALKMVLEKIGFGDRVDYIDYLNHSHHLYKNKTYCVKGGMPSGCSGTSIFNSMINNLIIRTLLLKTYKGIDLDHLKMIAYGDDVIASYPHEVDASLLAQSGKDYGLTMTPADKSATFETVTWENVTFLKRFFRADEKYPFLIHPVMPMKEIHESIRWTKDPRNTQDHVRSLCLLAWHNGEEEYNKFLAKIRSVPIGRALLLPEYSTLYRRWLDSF
Polio RdRp inh intensity: second read-out of Polio RdRp inh, no call of its own (marks repeat the call); % elongation; measured here: total intensity read-out; formula for this scale not given here;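 total fluorescence in place of polarization; lower means less elongation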
An asterisk follows results filed as active. These rows are one share of the data; rates above refer to the full screens.

The line under a structure holds: Polio RdRp inh | Polio RdRp inh intensity
1: COc1cc(OC)c(N(C)C(=O)Cn2ncc3c(=O)oc4ccccc4c32)cc1Cl
 : 107.0 | 107.0
2: CCOc1ccc(C(=O)NCc2nnnn2-c2ccc(C)c(C)c2)cc1OCC
 : 105.0 | 114.0
3: CCc1ccc(NC(=O)Cn2c(=O)n(-c3ccc(OC)cc3)c(=O)c3ccc(C(=O)NCc4ccc(C)cc4)cc32)cc1
 : 106.0 | 103.0
4: COc1ccc(-n2c(=O)[nH]c3cc(C(=O)NCCc4ccccc4)ccc3c2=O)cc1OC
 : 104.0 | 107.0
5: CCCN(CCC)C(=O)C1CCN(c2ncnc3c2nc2n3CCCCC2)CC1
 : 106.0 | 108.0
6: CCCc1cc(=O)[nH]c2nnc(SCCC(C)C)n12
 : 114.0 | 112.0
7: COc1cc(CN(C(=O)c2ccc(OC(C)C)cc2)C2CCS(=O)(=O)C2)cc(OC)c1OC (stereo not given)
 : 104.0 | 97.0
8: Cc1coc2cc3oc(=O)c(CC(=O)NCc4cccc(Cl)c4)c(C)c3cc12
 : 104.0 | 100.0
9: Cc1ccc(Cl)cc1NC(=O)c1cc(S(=O)(=O)N2CCCCCC2)cn1C
 : 102.0 | 97.0
10: COc1ccc(CNC(=O)CCc2nc3cccnc3n2Cc2ccccc2)cc1
 : 96.0 | 94.0
11: O=C(Cc1ccc(F)cc1)NCCc1csc(-c2cccc(F)c2)n1
 : 109.0 | 117.0
12: CCOc1ccc(CNC(=O)CCn2nc(C)c3c(C)n(-c4ccccc4)nc3c2=O)cc1
 : 112.0 | 99.0
13: Cc1cccc(NC(=O)CCS(=O)(=O)c2cc(Br)cc3c2N(C(=O)C2CC2)CC3)c1
 : 99.0 | 100.0
14: Cc1ccc(C)c(NC(=O)C(c2ccccc2)N2Cc3ccccc3C2=O)c1 (stereo not given)
 : 100.0 | 94.0
15: COc1ccc(CNC(=O)c2ccc3c(c2)N(Cc2ccc(C)cc2)CCS3)cc1
 : 103.0 | 110.0
16: Cc1ccc(S(=O)(=O)N(Cc2nc(-c3ccc(Cl)cc3)no2)C2CCCCC2)cc1
 : 109.0 | 105.0
17: CCOC(=O)c1cccc(Nc2cc(C)nc(C)n2)c1
 : 113.0 | 105.0
18: CCOc1ccc(NC(=O)Nc2c[nH]c(=O)[nH]c2=O)cc1
 : 105.0 | 109.0
19: COc1ccc(N2Cc3cccc(C(=O)Nc4ccc(Cl)cc4)c3C2=O)cc1
 : 110.0 | 109.0
20: CC(C)(C)c1cc(C(C)(C)C)c2oc(=O)c(-c3nc4ccc(C(=O)O)cc4[nH]3)cc2c1
 : 98.0 | 100.0
21: COc1ccc(-c2[nH]c(-c3ccc(Cl)cc3)nc2SCC(=O)NCC2CCCO2)cc1 (stereo not given)
 : 115.0 | 115.0
22: Cc1ccc(S(=O)(=O)N2CCCc3cc(NS(=O)(=O)c4ccccc4)ccc32)cc1
 : 108.0 | 114.0
23: CCOc1ccccc1NC(=O)CSc1nc2c(sc3ccccc32)c(=O)n1CCCC(=O)NC1CCCC1
 : 101.0 | 104.0
24: CCc1ccccc1NC(=O)Cn1c(=O)n(Cc2ccccc2)c(=O)c2c(C)c(C(=O)N(C)C)sc21
 : 109.0 | 105.0
25: CCc1ccc(NC(=O)Cn2c(=O)n(CCCC(=O)NCc3ccccc3OC)c(=O)c3ccccc32)cc1
 : 102.0 | 99.0
26: CCCn1c(NCc2ccccc2C)nc2ccccc21
 : 104.0 | 104.0
27: CCOC(=O)c1c(C)oc2nc(C)nc(N3CCN(c4ccc(C)cc4C)CC3)c12
 : 101.0 | 95.0
28: CCOc1ccccc1NC(=O)C(CC(C)C)NC(=O)C1CCC(C)CC1 (stereo not given)
 : 107.0 | 104.0
29: CCOC(=O)c1c(NC(=O)CSc2cn(CCNC(=O)c3ccccc3OC)c3ccccc23)sc2c1CCCC2
 : 104.0 | 107.0
30: COc1ccc(OC)c(S(=O)(=O)NCC(c2ccco2)S(=O)(=O)c2ccccc2)c1 (stereo not given)
 : 105.0 | 107.0

3 entries out of the list, sorted by count of non-hydrogen atoms, highest first.
The line under a structure holds: Polio RdRp inh | Polio RdRp inh intensity
15: COc1ccc(CNC(=O)c2ccc3c(c2)N(Cc2ccc(C)cc2)CCS3)cc1
 : 103.0 | 110.0
19: COc1ccc(N2Cc3cccc(C(=O)Nc4ccc(Cl)cc4)c3C2=O)cc1
 : 110.0 | 109.0
18: CCOc1ccc(NC(=O)Nc2c[nH]c(=O)[nH]c2=O)cc1
 : 105.0 | 109.0

Single values from the entries so far:
COc1cc(CN(C(=O)c2ccc(OC(C)C)cc2)C2CCS(=O)(=O)C2)cc(OC)c1OC (stereo not given) in Polio RdRp inh intensity = 97.0
CCc1ccc(NC(=O)Cn2c(=O)n(CCCC(=O)NCc3ccccc3OC)c(=O)c3ccccc32)cc1 in Polio RdRp inh = 102.0
CCOc1ccccc1NC(=O)C(CC(C)C)NC(=O)C1CCC(C)CC1 (stereo not given) in Polio RdRp inh intensity = 104.0

The list goes on:
The line under a structure holds: Polio RdRp inh | Polio RdRp inh intensity
31: COCc1nnc(NC(=O)c2cc(OC)c(OC)c(OC)c2)s1
 : 103.0 | 106.0
32: Cc1oc(-c2ccc(Cl)cc2)nc1CN1CCCC(C(=O)NCc2ccc(Cl)cc2)C1 (stereo not given)
 : 107.0 | 113.0
33: Cc1ccc(-c2nnc(Nc3ccc(C(N)=O)cc3)c3ccccc23)cc1S(N)(=O)=O
 : 97.0 | 93.0
34: CC(=O)Nc1cccc(-c2cn3cccnc3n2)c1
 : 106.0 | 110.0
35: CCN(CC)c1ccc(NC(=O)c2cnn3c(C(F)F)cc(-c4ccccc4)nc23)cc1
 : 107.0 | 111.0
36: CC(=O)c1ccc(NC(=O)C2=CC(c3ccc4c(c3)OCO4)=NS(=O)(=O)N2C)cc1
 : 108.0 | 102.0
37: CCc1noc(-c2ccc(N3CCCCC3)c([N+](=O)[O-])c2)n1
 : 101.0 | 102.0
38: COc1ccc(Br)cc1CNC(=O)CN1CCSc2ccccc21
 : 103.0 | 107.0
39: CC(=O)c1cc(-c2ccc(F)cc2)n(CCC(=O)Nc2nc3ccc(C)cc3s2)c1C
 : 108.0 | 112.0
40: COc1ccc(C(=O)COC(=O)c2cc(-c3cccs3)nc3ccccc23)cc1
 : 107.0 | 109.0
41: COc1ccc2c(C)cc(SCC(=O)Nc3nsc(-c4ccccc4C)n3)nc2c1
 : 102.0 | 97.0
42: COc1ccc(-c2cc(C(=O)NCCc3ccccc3)c3c(-c4ccccc4)[nH]nc3n2)cc1OC
 : 107.0 | 103.0
43: COC(=O)c1scc(-c2ccc(C)cc2)c1S(=O)(=O)N1CCN(c2ccccc2F)CC1
 : 97.0 | 96.0
44: COC(=O)c1ccc(NC(=O)C2CCN(S(=O)(=O)c3ccc4c(c3)CCCN4C(C)=O)CC2)cc1
 : 101.0 | 106.0
45: Cc1cc(=O)c2cc(C(=O)Nc3ccccc3)ccc2[nH]1
 : 105.0 | 110.0
46: Cc1cc(Nc2cccc(C)c2C)n2cnnc2n1
 : 113.0 | 113.0
47: CCCSCCCNC(=O)c1ccc(Cn2c(=O)c3cccn3c3cccnc32)cc1
 : 114.0 | 114.0
48: Cc1cccc(C(=O)Nc2cc3c(cc2C)n(C)c(=O)n3C)c1
 : 106.0 | 108.0
49: Cc1ccc(-c2ccc(=O)n(CCC(=O)NCCc3ccccc3)n2)cc1
 : 117.0 | 111.0
50: Cc1oc(-c2cccc(Br)c2)nc1Cn1c(=O)cc(-c2ccccc2)c2c(C)nn(C)c21
 : 107.0 | 111.0
51: CCOc1ccccc1NC(=O)CN1C(=O)COc2ccc(S(=O)(=O)N3CCCCC3)cc21
 : 112.0 | 114.0
52: CCSc1ncc(Cl)c(C(=O)Nc2c(C(=O)Nc3ccccc3)oc3ccccc23)n1
 : 113.0 | 112.0
53: COc1ccc(N(Cc2cccs2)C(=O)COc2ccc([N+](=O)[O-])cc2)cc1
 : 112.0 | 109.0
54: COc1ccccc1Cn1ccn(Cc2c(F)cccc2Cl)c(=O)c1=O
 : 102.0 | 97.0
55: Cc1cn2c(=O)cc(COc3ccc(NC(=O)c4cccc(F)c4)cc3)nc2s1
 : 103.0 | 104.0
56: CCn1cc(C(=O)NCc2ccccc2)c(=O)c2cc(S(=O)(=O)N3CCCCC3)ccc21
 : 103.0 | 106.0
57: COc1ccc(OC)c(C2CC(=O)N(c3cccc(C)c3)C3=C2C(=O)OC3)c1 (stereo not given)
 : 102.0 | 98.0
58: CCCNC(=O)CN1CCN(c2ncc(NC(=O)c3ccc(Cl)cc3)cc2C(=O)O)CC1
 : 108.0 | 113.0
59: Cc1ccc(Cn2nc3n(c2=O)-c2cc(Cl)ccc2OC3)cc1
 : 107.0 | 108.0
60: C#CCn1c(COc2ccccc2C)nc2ccccc21
 : 107.0 | 110.0

Given field by field: entries from further up
#58 CCCNC(=O)CN1CCN(c2ncc(NC(=O)c3ccc(Cl)cc3)cc2C(=O)O)CC1
  Polio RdRp inh: 108.0 | Polio RdRp inh intensity: 113.0

#12 CCOc1ccc(CNC(=O)CCn2nc(C)c3c(C)n(-c4ccccc4)nc3c2=O)cc1
  Polio RdRp inh: 112.0 | Polio RdRp inh intensity: 99.0

#25 CCc1ccc(NC(=O)Cn2c(=O)n(CCCC(=O)NCc3ccccc3OC)c(=O)c3ccccc32)cc1
  Polio RdRp inh: 102.0 | Polio RdRp inh intensity: 99.0

#17 CCOC(=O)c1cccc(Nc2cc(C)nc(C)n2)c1
  Polio RdRp inh: 113.0 | Polio RdRp inh intensity: 105.0

Carrying on.
The line under a structure holds: Polio RdRp inh | Polio RdRp inh intensity
61: COc1ccc(N(C(=O)/C=C\C(=O)Nc2ccc(C)cc2)C(C(=O)NCc2ccco2)c2ccc(C)cc2)cc1 (stereo not given)
 : 114.0 | 114.0
62: CCOc1ccc(-n2nc3ccc(NC(=O)COc4ccc(OC)cc4)cc3n2)cc1
 : 103.0 | 109.0
63: CC(C)(C)OC(=O)N1CCC(c2c(C(=O)NCc3cccc(Cl)c3)cnn2-c2ccc(F)cc2)CC1
 : 112.0 | 112.0
64: COc1ccc(NC(C)=O)cc1NC(=O)CN1CCN(c2ccc(F)cc2)CC1
 : 106.0 | 108.0

High-throughput results from PubChem.
